Bioassay records as filed in PubChem BioAssay.
GLA inh pH 4.5 = blocks human alpha-galactosidase A at pH 4.5; P06280; purified enzyme, 4-MU-alpha-Gal fluorescence, pH 4.5; activity change, negative = inhibition, % at 105 µM; 230,000 tested, under 10 active; inconclusive = small, poorly fitted or top-dose-only inhibition, or a rising curve; inactive = flat fitted curve, though single readings scatter; no compound was filed as active;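 also: 0% = full activity with enzyme and -100% = basal without enzyme; dose as in the result columns while the protocol names 77 µM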
Target sequence (P06280 whole entry, looked up): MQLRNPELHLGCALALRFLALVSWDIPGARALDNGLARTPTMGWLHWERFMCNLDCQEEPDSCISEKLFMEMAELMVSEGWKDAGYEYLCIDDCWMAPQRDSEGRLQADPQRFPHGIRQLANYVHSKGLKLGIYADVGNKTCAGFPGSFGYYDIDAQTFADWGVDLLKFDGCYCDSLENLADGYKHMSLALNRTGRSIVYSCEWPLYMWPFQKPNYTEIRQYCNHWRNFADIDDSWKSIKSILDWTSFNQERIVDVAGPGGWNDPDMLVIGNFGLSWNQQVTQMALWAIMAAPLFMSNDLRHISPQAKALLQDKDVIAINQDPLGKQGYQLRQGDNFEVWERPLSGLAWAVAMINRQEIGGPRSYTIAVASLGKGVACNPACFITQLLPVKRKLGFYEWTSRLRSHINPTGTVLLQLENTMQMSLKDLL
Rango-impB inh = prevents formation of the Rango-importin beta complex; Q14974; Potency, µM (top dose mostly 92.2 µM), inactives show top-dose inhibition of complex formation; AID 540263; Rango CFP/YFP FRET sensor + importin beta, 45 min; 0.031% of 340,000 active; active = rising FRET ratio curve, often small or poorly fitted; inconclusive = mostly compound fluorescence or quenching in the first reads; inactive = flat curves in all reads;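 also: potency is read from the fitted curve at half-maximal effect; 0% = DMSO wells and 100% = buffer wells lacking importin beta; nearly all actives have a fitted effect of over 15% in size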
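FRET biosensor (snurportin 1 IBB flanked by EYFP and cerulean), 50 nM, with compound 5 min, then 0.125 microM importin beta in PBS, 1 mM DTT, 0.02% Tween-20, 0.1% BSA. CFP/YFP ratio read after 45 min at room temperature; pre-read flags interference.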
miR-21 reporter = miR-21 reporter, rising signal; HeLa miR-21 FLuc reporter, luciferase, 48 h; Potency, µM (highest dose often 38.3 µM), without a hit: at the top dose reporter change, positive = more light; 340,000 tested, under 10 active; active = well fitted rising curve with a large enough effect; inconclusive = small, poorly fitted or top-dose-only effect; inactive = no such curve, though single readings can be large or run the other way;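 also: % of control where 0% means no effect; miR-21 action dims this reporter so a rising signal means less miR-21 action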
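Compounds were titrated across several concentrations (up to approximately 40 uM) and incubated 48 hours with HeLa miR-21-FLuc reporter cells (miR-21 target sequence downstream of FLuc, endogenous miR-21). Readout was firefly luciferase luminescence after lytic detection reagent.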
Rango release inh = inhibition of RanGTP-driven Rango-importin beta dissociation; O95149+P62826; Biochemical FRET Rango-importin beta, RanGTP-induced dissociation; Potency, µM (titrated, usually from 46.1 µM), for inactives: at the top dose activity change, negative = inhibition; 0.071% of 340,000 active; AID 540253; active means falling FRET ratio curve, often poorly fitted, with flat reads before Ran was added; inconclusive means other falling curves, or compound fluorescence or quenching; inactive means flat or rising ratio curve;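 also: potency is read from the fitted curve at half-maximal effect; % of control where 0% means no effect; nearly all actives have a fitted effect of over 45% in size; -100% = wells without RanGTP and RCC1; the record marks most hits as doubtful in a second field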
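FRET read at 45 min, room temperature: inhibitors block the CFP/YFP signal rise when RanGTP (0.6 uM Ran, 2 mM GTP, 0.2 uM RCC1) frees Rango (0.1 uM) from importin beta (0.25 uM). Pre-read after 5 min compound exposure flags interference.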
* = called active by the depositor; ? = inconclusive; . = no result given; & = joins results of further samples; [ ] = remark or other dose.

| # | mol | miR-21 reporter | Rango-impB inh | Rango release inh | GLA inh pH 4.5 |
| --- | --- | --- | --- | --- | --- |
| 1 | Cc1cc2c(c(C)c1Cl)C(c1ccc3c(c1)OCO3)CC(=O)O2 (configuration not stated) | . | 0.6% | -7% | -8 |
| 2 | COc1cc(-c2nnc(COc3ccc4ccccc4c3)o2)cc(OC)c1OC | -15% | -2.5% | 1% | -1 |
| 3 | CCCCOC(=O)/C=C/c1c(C)[nH]c(=O)[nH]c1=O | -14% | 0.5% | -14% | 5 |
| 4 | COc1ccc(CNC(=O)C(CC(C)C)NC(=O)c2ccccc2C)cc1 (configuration not stated) | 9% | -5.9% | -11% | . |
| 5 | COc1cc(/C=N/NC(=O)c2cccc(C(=O)N/N=C/c3ccc(O)c(OC)c3)n2)ccc1O | -3% | 3.6% | 0% | . |
| 6 | CS(=O)(=O)N(CC(=O)N1CCCC1)Cc1ccccc1 | 8% | -1.4% | 8% | -9 |
| 7 | c1ccc2c(c1)nnn2-c1ncnc2sccc12 | -27% | ? | 12% | 5 |
| 8 | C=CCNC(=S)N/N=C(\C)c1cccnc1 | -2% | 0.3% | -7% | 2 |
| 9 | O=C(Nn1cnnc1)c1cc(Cl)cc(Cl)c1 | 1% | 1.6% | -10% | . |
| 10 | O=C(O)c1ccc(S(=O)(=O)N2CCC3(CC2)CC(=O)c2ccccc2O3)cc1 | . | -0.9% | -2% | . |
| 11 | CCCNC(=O)c1ccc(N2CCC3(CC2)CC(c2ccc(Cl)cc2)=NO3)c([N+](=O)[O-])c1 | -5% | -1.7% | 19% | . |
| 12 | COc1cc(CN(CCc2c(C)[nH]c3ccc(C)cc23)C(=S)NC(C)(C)C)cc(OC)c1OC | 8% | 0.2% | -8% | 2 |
| 13 | Cc1cc(/C=C(\C#N)C(=O)OCC(=O)Nc2ccc(OC(F)F)cc2)c(C)n1CC(C)C | -20% | ? | 19% | 4 |
| 14 | COc1ccc(C(=O)N2CCc3c([nH]c4ccccc34)C2C(F)(F)F)cc1 (configuration not stated) | 7% | 3.8% | 29% | -9 |
| 15 | CCOP(=O)(c1c(F)c(F)c(F)c(F)c1F)C1(O)CCCCC1 (configuration not stated) | -1% | 0.8% | 1% | -6 |
| 16 | COC(=O)c1sc2nc(C)cc(-c3ccccc3)c2c1N | -5% | ? | ? | -4 |
| 17 | COC(=O)CN(c1nc(C)cc(OC)n1)S(=O)(=O)c1ccccc1 | -1% | -0.5% | -15% | -5 |
| 18 | COc1ccc(N=Cc2c(O)[nH]c3ccccc23)cc1OC | -31% | ? | -11% | -10 |
| 19 | Cc1cc(S(=O)(=O)N(Cc2ccccc2)Cc2ccc(N(C)C)cc2)ccc1-n1cnnn1 | -9% | -2.4% | -17% | 2 |
| 20 | COC/C=C/C1=CC2=CC(=O)C(C)(OC(=O)c3cnc4ccccc4n3)C(=O)C2=CN1Cc1ccco1 (configuration not stated) | . | ? | -10% | 1 |

A second format for 15 compounds above.
Below each compound – miR-21 reporter, Rango-impB inh, Rango release inh, GLA inh pH 4.5
(5) COc1cc(/C=N/NC(=O)c2cccc(C(=O)N/N=C/c3ccc(O)c(OC)c3)n2)ccc1O
  -3%, 3.6%, 0%, .
(6) CS(=O)(=O)N(CC(=O)N1CCCC1)Cc1ccccc1
  8%, -1.4%, 8%, -9
(7) c1ccc2c(c1)nnn2-c1ncnc2sccc12
  -27%, ?, 12%, 5
(8) C=CCNC(=S)N/N=C(\C)c1cccnc1
  -2%, 0.3%, -7%, 2
(9) O=C(Nn1cnnc1)c1cc(Cl)cc(Cl)c1
  1%, 1.6%, -10%, .
(10) O=C(O)c1ccc(S(=O)(=O)N2CCC3(CC2)CC(=O)c2ccccc2O3)cc1
  ., -0.9%, -2%, .
(11) CCCNC(=O)c1ccc(N2CCC3(CC2)CC(c2ccc(Cl)cc2)=NO3)c([N+](=O)[O-])c1
  -5%, -1.7%, 19%, .
(12) COc1cc(CN(CCc2c(C)[nH]c3ccc(C)cc23)C(=S)NC(C)(C)C)cc(OC)c1OC
  8%, 0.2%, -8%, 2
(13) Cc1cc(/C=C(\C#N)C(=O)OCC(=O)Nc2ccc(OC(F)F)cc2)c(C)n1CC(C)C
  -20%, ?, 19%, 4
(14) COc1ccc(C(=O)N2CCc3c([nH]c4ccccc34)C2C(F)(F)F)cc1 (configuration not stated)
  7%, 3.8%, 29%, -9
(15) CCOP(=O)(c1c(F)c(F)c(F)c(F)c1F)C1(O)CCCCC1 (configuration not stated)
  -1%, 0.8%, 1%, -6
(16) COC(=O)c1sc2nc(C)cc(-c3ccccc3)c2c1N
  -5%, ?, ?, -4
(17) COC(=O)CN(c1nc(C)cc(OC)n1)S(=O)(=O)c1ccccc1
  -1%, -0.5%, -15%, -5
(18) COc1ccc(N=Cc2c(O)[nH]c3ccccc23)cc1OC
  -31%, ?, -11%, -10
(19) Cc1cc(S(=O)(=O)N(Cc2ccccc2)Cc2ccc(N(C)C)cc2)ccc1-n1cnnn1
  -9%, -2.4%, -17%, 2

Going on with the list.
| # | mol | miR-21 reporter | Rango-impB inh | Rango release inh | GLA inh pH 4.5 |
| --- | --- | --- | --- | --- | --- |
| 21 | COc1cc(/C=N\NC(=O)C2CC3C=CC2C3)ccc1O (configuration not stated) | -17% | -3.7% | 1% | 0 |
| 22 | CCOC(=O)CCSc1nc(-c2ccc3c(c2)OCO3)cc(C(F)(F)F)c1C#N | 2% | 3.1% | ? | -1 |
| 23 | Cc1ccc(-c2nnc(-n3nc(C)cc3C)c3ccccc23)cc1 | -8% | 3.3% | -15% | -6 |
| 24 | Cc1noc(/C=C/N(C)C)c1S(=O)(=O)N1CCCC(C(=O)NC2CCCCC2)C1 (configuration not stated) | -7% | ? | -12% | 3 |
| 25 | CSc1ccc(CN2CCN(C3CCCC3)C(CCO)C2)cc1 (configuration not stated) | -3% | -3.8% | 20% | -4 |
| 26 | COCCN(C(=S)Nc1c(C)cccc1C)C(C)c1ccco1 (configuration not stated) | -1% | 2.2% | 17% | 8 |
| 27 | Cc1ccc(S(=O)(=O)CCc2nc3ccccc3[nH]2)cc1 | 5% | 2.7% | 6% | ? |
| 28 | COc1ccc2oc(C(=O)N(C)CCOc3ccc(Cl)cc3)c(C)c2c1 | -9% | 0.8% | -8% | . |
| 29 | S=C(Nc1ccccc1)Nn1cnnc1 | -7% | 0.8% | ? | 2 |
| 30 | Cc1noc(C)c1COc1ccc(C(=O)N2CCN(c3cccc(Cl)c3)CC2)cc1 | . | 1.2% | 1% | . |
| 31 | CCOCCCN(Cc1ccco1)C(=O)c1cc2c(=O)[nH]c3ccc(C)cc3c2s1 | 25%&20% | 1.5% | -7% | -2 |
| 32 | Cc1c(C(=O)n2cnc3ccccc32)cccc1[N+](=O)[O-] | -1% | 2.5% | 7% | . |
| 33 | CC1CCN(c2ccc(NC(=O)Cc3ccccc3)cc2)CC1 | -19% | -6.4% | -7% | 7 |
| 34 | Cc1cc(C)cc(N(CC(=O)N2CCC(C)CC2)S(C)(=O)=O)c1 | 1% | -1.0% | 0% | -2 |
| 35 | c1ccc(-c2csc(N3CCc4ccccc4C3)n2)cc1 | -44% | -3.3% | 5% | -4 |
| 36 | O=C(OCC(=O)N1CCCC1)c1ccc(S(=O)(=O)Nc2ccccc2)cc1 | 0% | 0.1% | 5% | 5 |
| 37 | CC(=O)c1cccc(NC(=O)CSc2ccc(-c3ccco3)nn2)c1 | 4% | -3.3% | 0% | . |
| 38 | COc1ccc(OC[C@@H](O)CNC(=O)c2cccc3c2C(=O)c2ccc(-c4ccc(F)cc4OCc4ccccc4)cc2S3(=O)=O)cc1 | . | 0.8% | -7% | . |
| 39 | CCOC(=O)Nc1ccccc1C(=O)N1CCOCC1 | -4% | -1.8% | -4% | -3 |
| 40 | CC(Oc1ccc(Cl)cc1Cl)C(=O)Nc1ccc(OCC(=O)O)cc1 (configuration not stated) | -7% | 0.6% | -6% | -15 |
| 41 | Cc1ccc(Cl)c(OC(=O)Cn2cnc3c2c(=O)n(C)c(=O)n3C)c1 | 1% | -1.6% | 10% | 0[21.1 µM] |
| 42 | Cc1ccc(-n2nc(C(=O)NN)c(C)c(C#N)c2=O)cc1Cl | -12% | 0.1% | 0% | . |

Profiles, quoted from the list. Order of values: miR-21 reporter	Rango-impB inh	Rango release inh	GLA inh pH 4.5
`O=C(OCC(=O)N1CCCC1)c1ccc(S(=O)(=O)Nc2ccccc2)cc1` is entered as 0%	0.1%	5%	5
`Cc1c(C(=O)n2cnc3ccccc32)cccc1[N+](=O)[O-]` is entered as -1%	2.5%	7%	.
`Cc1cc(C)cc(N(CC(=O)N2CCC(C)CC2)S(C)(=O)=O)c1` is entered as 1%	-1.0%	0%	-2

This is a subset; rates above refer to the full screens.
